Screening data: PubChem, National Center for Advancing Translational Sciences (NCATS)
Six1-Eya2 inh: Six1/Eya2 interaction inhibition | AlphaScreen GST-Six1/His-Eya2 binding, biochemical; hits give low values; control for the full effect not named in the record | Q15475+O00167 | AID 651725 | activity change, % (test concentration not listed) | 360,000 tested, 0.56% active; in the data active = activity change below about -65%; inconclusive = about -30% to -65%; inactive = above about -30%; further: on the % scale 0 is the no-effect control and ±100 the full control effect; compound concentration not given in the record
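AlphaScreen luminescence read after one hour at 37 °C in darkness. Pin-transferred compounds met GST-Six1 and His-Eya2 protein (5X stock 250 nM/500 nM) plus glutathione donor and Ni-chelate acceptor beads (5X, 50 ug/mL).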
TRPV1 potentiator: human TRPV1 potentiation. potentiation, % at 8.33 µM. 320,000 tested, 0.02% active. TRPV1-expressing cells, Fluo-8 calcium influx, capsaicin EC20 potentiation; host cell line not named in the record; control for the full effect not named in the record. AID 540277; active means potentiation above 80%; inconclusive means 30% to 80%; inactive means below 30%; further: 0% is about no effect
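Fluo-8 calcium influx in TRPV1-expressing cells, kinetic read (ex 480/em 520 nm). Compound added and read 3 min for agonist activity, followed by capsaicin at EC20 final and 2 min further read for enhancement.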
D2 PAM: potentiates the human D2 dopamine receptor allosterically. potentiation, % (concentration not given with the values). AID 624464. 360,000 tested, 0.23% active. DiscoveRx D2 beta-arrestin cells, luminescence, 90 min; 100% = 57 uM dopamine signal. P14416; active = potentiation of 50% or more; inconclusive = 30% to 50%; inactive = 30% or less;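 further: compound concentration not given in the record; tested on top of an EC20 dose of dopamine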
Target sequence (P14416 whole entry, looked up): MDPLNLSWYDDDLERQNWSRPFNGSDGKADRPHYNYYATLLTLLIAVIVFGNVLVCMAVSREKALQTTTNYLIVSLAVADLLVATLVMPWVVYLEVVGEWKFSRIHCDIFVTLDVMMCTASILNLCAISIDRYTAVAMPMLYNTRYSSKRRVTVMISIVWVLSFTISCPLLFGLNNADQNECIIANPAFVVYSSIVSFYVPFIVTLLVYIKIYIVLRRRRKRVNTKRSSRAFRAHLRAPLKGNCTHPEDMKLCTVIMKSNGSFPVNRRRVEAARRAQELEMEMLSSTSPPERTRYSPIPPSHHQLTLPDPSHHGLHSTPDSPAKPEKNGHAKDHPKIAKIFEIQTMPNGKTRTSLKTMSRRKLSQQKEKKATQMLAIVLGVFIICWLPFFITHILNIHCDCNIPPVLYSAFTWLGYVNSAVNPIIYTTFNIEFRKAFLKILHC
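D2 cells co-treated with compound plus 50 nM dopamine (EC20) for 90 min at 37 deg C to detect potentiation. Beta-arrestin recruitment was read as enzyme-fragment luminescence after 1 h at ambient temperature. Full response was set by 57 uM dopamine.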
TRPML1 inh: inhibitors of human TRPML1 channel. Q9GZU1. TRPML1-inducible cells, Ca2+ dye fluorescence, FDSS; hits give low values; inhibition of EC80 agonist-evoked calcium signal. activity change, negative = inhibition, % (no concentration beside the values). 390,000 tested, 0.02% active; in the data active means activity change below about -50%; inconclusive means about -30% to -50%; inactive means above about -30%;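 further: stimulus is agonist 54-4 at its EC80 concentration; on the % scale 0 is the no-effect control and ±100 the full control effect; compound concentration not given in the record; the text of the record puts the active cut at -80%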
Target sequence (Q9GZU1 whole entry, looked up): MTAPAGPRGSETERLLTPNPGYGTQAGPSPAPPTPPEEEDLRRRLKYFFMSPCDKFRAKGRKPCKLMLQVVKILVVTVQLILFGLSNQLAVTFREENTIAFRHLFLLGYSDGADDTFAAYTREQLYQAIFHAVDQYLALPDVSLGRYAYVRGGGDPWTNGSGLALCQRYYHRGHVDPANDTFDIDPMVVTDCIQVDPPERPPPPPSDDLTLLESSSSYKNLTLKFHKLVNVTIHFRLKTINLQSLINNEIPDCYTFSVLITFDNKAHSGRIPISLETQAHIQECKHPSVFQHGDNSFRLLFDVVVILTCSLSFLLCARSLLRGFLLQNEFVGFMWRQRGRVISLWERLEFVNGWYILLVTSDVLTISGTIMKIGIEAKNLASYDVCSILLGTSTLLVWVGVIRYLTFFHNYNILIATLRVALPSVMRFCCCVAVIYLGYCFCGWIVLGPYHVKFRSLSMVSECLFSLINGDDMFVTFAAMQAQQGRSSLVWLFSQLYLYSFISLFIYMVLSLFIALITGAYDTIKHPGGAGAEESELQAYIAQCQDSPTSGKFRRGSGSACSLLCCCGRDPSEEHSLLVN
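Tet-induced TRPML1-DL cells loaded with Ca8 no-wash calcium dye were read kinetically on FDSS. Compound addition was followed by EC80 agonist 54-4 (4 uM final); inhibition was read over 110 s.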
TRPML1 agonist: agonists of human TRPML1 channel. Q9GZU1. TRPML1-expressing cells, Ca2+ dye fluorescence, FDSS; host cell line not named in the record; reference of the full effect not given here. activation, % (no concentration beside the values). 410,000 tested, 0.12% active. AID 624414; in the data active = activation above about 50%; inconclusive = about 30% to 50%; inactive = below about 30%; further: 0% is about no effect; the text of the record puts the active cut at 80%
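Agonist activity was taken from a 110 s kinetic Ca2+ dye read on the FDSS after pinning compounds onto TRPML1-DL cells. The cells were seeded at 1,500/well with Tet inducer, incubated about 16 h, then dye-loaded at room temperature.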
CtBP-E1A inh: CtBP/E1A binding inhibition | 340,000 tested, 0.49% active | AlphaScreen GST-E1A/His-CtBP binding, 1536-well; hits give low values; control for the full effect not named in the record | activity change, % (no concentration beside the values); in the data active means activity change below about -65%; inconclusive means about -30% to -65%; inactive means above about -30%; further: on the % scale 0 is the no-effect control and ±100 the full control effect; compound concentration not given in the record
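Homogeneous bead-based format: GST-tagged E1A captured on glutathione donor beads, His-tagged CtBP on nickel acceptor beads; compounds precede bead addition by 2 h at 37 °C.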
Numbers without * were called inactive; ? = inconclusive; / = not tested or not shown; & = joins results of further samples.

Molecule,Six1-Eya2 inh,TRPV1 potentiator,D2 PAM,TRPML1 inh,TRPML1 agonist,CtBP-E1A inh
CCOC(=O)c1c(C)n(C)c2ccc(O)c(S(=O)(=O)c3ccccc3)c12,-9,-7,-12,-4,2.7,-16
CCOC(=O)N=Nc1c(O)n(CC(=O)OC)c2ccccc12,8,4,-9,-13,2.0,-13
CC1CN(C(NC(=O)c2ccccc2)C(Cl)(Cl)Cl)CC(C)O1 (centres undefined),4,6,6,13,1.0,/
CC(C)CC(=O)NC(=S)NNC(=O)c1ccc(NC(=O)C2CCCCC2)cc1,?,8,-23,27,2.1,?
CCOC(=O)N1CCC(N2C(=O)c3ccccc3C2Nc2ccccc2)CC1 (centres undefined),5,-20,-9,-4,0.2,4
O=C(N/N=C/c1c(Cl)cccc1Cl)C(=O)NC1CC1,4,4,-1,7,-0.3,1
N#CC1=C(N)OC2=C(CN(Cc3ccccc3)C/C2=C\c2cccnc2)C1c1cccnc1 (centres undefined),-6,/,12,17,-1.1,1
CC(NC(=O)c1ccc(CS(=O)(=O)Cc2ccccc2F)o1)c1ccc2c(c1)OCCO2 (centres undefined),-3,4,-8,-8,-0.5,1
Cc1cc(OCCn2ccnc2)cc(C(C)C)c1,2,0,-1,-3,2.2,-2
COc1cccc2c1cc1c(=O)n(CC(=O)NC3CCCCC3)nc(C)n12,-5,-4,-14,-22&0,0.9&0.4,/
CCOc1ccc(NC2=CC(=O)CCC2)cc1,-3,4,-2,?,1.1,-14
CC(=O)c1cccc(NC(=O)C2CCN(C(=O)c3ccccc3Cl)CC2)c1,-10,-5,-41,0,0.4,-20
CCOC(=O)C1CCN(C(=O)C23CC4CC(CC(C4)C2)C3)CC1,7,-28,2,-5,1.3,-4
COc1ccccc1N(CC(=O)N1CCCC1)S(=O)(=O)c1cc([N+](=O)[O-])ccc1Cl,-1,/,4,-3,4.0,-7
O=C(Cn1c(C(F)(F)F)nc2ccccc21)Oc1cccc(C(F)(F)F)c1,14,?,-6,21,0.6,-4
Cc1cccnc1NC(=O)CNC(=O)C1CCCCC1,3,-2,-2,-2,-0.4,3
COc1ccc(NC(=O)N2CCN(CCC#N)CC2)cc1,0,11,-2,-3,-0.3,8
Cc1nn(C(=O)CN2C(=O)c3ccccc3C2=O)c(C)c1Br,-3,1,1,4,1.9,1
COC(=O)c1cc(NC(=O)c2cc(C)oc2C)cc(C(=O)OC)c1,-4,2,-8,8,2.1,-9
CN1OC[C@@H]2CN(Cc3ccccc3)[C@H](c3cccc(-c4ccccc4)c3)C[C@@H]21,-16,/,1,69,1.1,-12
CCOC(=O)C1=C(C)NC2=C(C(=O)CCC2)C1c1cccnc1 (centres undefined),2,-4,4,-16,-0.7,12
CC1CCN(Cc2nnnn2-c2ccc(Cl)cc2)CC1,10,-18,0,-17,-0.4,7
O=C1/C(=C\c2ccccc2)CCC/C1=C/c1ccccc1,-2,/,-13,-5,2.1,6
COCCn1nnnc1CN(Cc1cc2cc(OC)c(OC)cc2[nH]c1=O)C1CCCC1,-2,?,4,-6,0.1,0
Nc1ccccc1SC1CC(=O)N(c2ccccc2Cl)C1=O (centres undefined),1,20,-19,1,-0.2,/
COCCn1c(C)cc(/C=C(\C#N)C(=O)OCC(=O)N(C)c2c(N)n(Cc3ccccc3)c(=O)[nH]c2=O)c1C,-3,-8,19,0,-0.2,-1
Nc1nccc(-c2cc(-c3ccc(Cl)cc3Cl)no2)n1,0,4,-12,8,-0.3,7
O=C(c1cc(Cl)cc(Cl)c1)N1CCC(=O)N([C@H](COCc2ccccc2)Cc2ccccc2)CC1,-7,/,/,/,-0.1,-3
CC1(c2ccccc2)NC(=O)N(CC(=O)N2CCOCC2)C1=O (centres undefined),5,0,-16,-4,1.9,9
O=C(NS(=O)(=O)c1ccccc1)c1ccccc1O,-1,-17,-13,-5,-0.9,1

Quoted at random: four entries already listed
Molecule,Six1-Eya2 inh,TRPV1 potentiator,D2 PAM,TRPML1 inh,TRPML1 agonist,CtBP-E1A inh
O=C(Cn1c(C(F)(F)F)nc2ccccc21)Oc1cccc(C(F)(F)F)c1,14,?,-6,21,0.6,-4
COCCn1c(C)cc(/C=C(\C#N)C(=O)OCC(=O)N(C)c2c(N)n(Cc3ccccc3)c(=O)[nH]c2=O)c1C,-3,-8,19,0,-0.2,-1
CC1(c2ccccc2)NC(=O)N(CC(=O)N2CCOCC2)C1=O (centres undefined),5,0,-16,-4,1.9,9
COc1ccc(NC(=O)N2CCN(CCC#N)CC2)cc1,0,11,-2,-3,-0.3,8

Profiles, looked up by structure. Screens in order: Six1-Eya2 inh | TRPV1 potentiator | D2 PAM | TRPML1 inh | TRPML1 agonist | CtBP-E1A inh
O=C(c1cc(Cl)cc(Cl)c1)N1CCC(=O)N([C@H](COCc2ccccc2)Cc2ccccc2)CC1 in the list: -7 | / | / | / | -0.1 | -3
CC1(c2ccccc2)NC(=O)N(CC(=O)N2CCOCC2)C1=O (centres undefined) in the list: 5 | 0 | -16 | -4 | 1.9 | 9

Next entries.
Molecule,Six1-Eya2 inh,TRPV1 potentiator,D2 PAM,TRPML1 inh,TRPML1 agonist,CtBP-E1A inh
O=C(O)[C@H]1CCCC[C@H]1C(=O)NCCNC(=O)[C@@H]1CCCC[C@@H]1C(=O)O,2,10,-7,10,1.6,0
Cc1cccc(-n2nc3c(c2NC(=O)c2ccc4c(c2)OCO4)CS(=O)(=O)C3)c1C,0,5,-14,23,-0.2,0
CC(C)n1c(O)c(N=NC(=O)Cc2csc(N3CCOCC3)n2)c2ccccc21,-4,-16,-5,9,-0.5,1
COc1cnc(-c2cccc(C(F)(F)F)c2)nc1OC,0,-16,2,7,-0.1,18
Cc1ccc(NC(=O)COC(=O)c2c(-c3ccccc3)noc2C)c(C)c1,-4,17,-11,-7,0.2,15
COc1ccc(C(c2nnnn2Cc2ccccc2)N2CCN(C(=O)c3ccco3)CC2)cc1OC (centres undefined),2,15,6,-14,0.7,-2
CCC/C(=N\NC(=O)Cc1csc(N2CCOCC2)n1)c1ccccc1,-1,-4,-2,8,0.4,11
COCC1CCN(Cc2cn[nH]c2-c2ccc(OC)c(F)c2)C1 (centres undefined),4,-5,-7,/,/,4
COc1ccc([C@H]2CC(=O)C[C@@H](CCn3cc(CC4CCCC4)nn3)O2)cc1,3,/,/,/,-0.7,-4
CN(C)CCNC(=O)c1ccc(-c2cn3c(-c4ccc(Oc5ccccc5)cc4)cnc3cn2)cc1,3,/,-1,/,-0.2,-7
COc1cccc(CN2CCN(Cc3ccco3)CC2)c1,-6,0,-10,17,0.4,-1
COc1ccc(-c2cc(C(=O)NCc3ccco3)c3ccccc3n2)c(OC)c1,4,-17,-9,-1,-0.5,0
COc1cccc(C(=O)Nc2cccc(S(=O)(=O)NC3=NCCC3)c2)c1,-7,9,1,-3,-0.5,/
CCOC(=O)c1sc(NC(=O)Nc2ccc(Cl)cc2)nc1C,-2,25,-2,-4,-0.2,3
CN1C(=O)CSc2ccc(NC(=O)N3CCN(c4ccccn4)CC3)cc21,-2,-26,-21,-6,0.6,4
COC(=O)CSc1nnc(CNC(=O)c2cccc(C)c2)n1-c1ccccc1OC,6,7,-5,-1,0.6,21
COc1ccc(NC(=O)CSc2nncn2N)c(OC)c1,3,-6,-2,27,-0.6,0
CCN(C(=O)CSc1nnc(-c2ccco2)n1C)c1c(N)n(Cc2ccccc2)c(=O)[nH]c1=O,0,0,-10,-2,5.2,6
Cc1nn(CCC(=O)O)c(C)c1C,-4,5,16,4,-0.2,11
COc1ccc(NC(=O)C(=S)N2CCCC2)cc1,-4,12,-10,-1,-0.2,3
C/C(=N\NC(=S)Nc1ccc(F)cc1)c1ccc2c(c1)OCCO2,?,4,-13,42,0.6,23
Cc1ccc(S(=O)(=O)NCCC(=O)NCCCSc2ccccc2)cc1,-1,1,-4,14,2.0,-17
CCNC(=O)C1(C)CCCN(Cc2csc(-c3ccccc3)n2)C1 (centres undefined),6,/,-6,/,-0.4,2
COc1ccccc1C(=O)OCc1c(F)cccc1Cl,25,7,-23,2,1.4,29
Cc1ccc[n+](C(C(=S)NCc2ccco2)=C([O-])c2ccccc2Cl)c1,23,/,-13,-14,1.2,0
CCOC(=O)N1CCC(NC(=S)Nc2ccc3nc(N4CCN(CC)CC4)cc(C)c3c2)CC1,-3,-3,-33,/,/,-12
CC(C)CN(CC(C)C)C(=O)CS(=O)(=O)Cc1ccccc1,2,0,-2,13,0.1,5
COc1cccc(NC(=O)Nc2ccc(C(C)(C)C)cc2)c1,0,-3,-5,4,-0.6,1
Cc1[nH]c(C)c(S(=O)(=O)N2CCN(c3cccc(C(F)(F)F)c3)CC2)c1C(=O)N1CCCCC1,-7,-3,-6,0,1.1,/
CC(C(=O)Nc1ccccn1)N1C(=O)C2C3C=CC(C3)C2C1=O (centres undefined),0,3,-10,-1,-0.3,-1
CC(CCc1ccccc1)NC(=O)CCc1cn(C)c2ccccc12 (centres undefined),-4,4,-1,-12,1.4,-5
CCCCC(CC)C(=O)Nc1cc(C(=O)NCCC)ccc1N1CCC2(CC1)CC(c1ccccc1)=NO2 (centres undefined),-8,-16,-2,20,1.2,-1
CCc1ccc(NC(=O)CN(C)S(=O)(=O)c2ccc3[nH]c(=O)oc3c2)cc1,-6,-30,-13,12,-0.9,-15
Cc1nnsc1-c1c(C(=O)O)c(C)nn1-c1ccc(OC(F)(F)F)cc1,7,-13,-3,0,-0.2,5
Cc1cccc2nc(-c3ccco3)c(Nc3ccc4c(c3)OCO4)n12,-11,-24,0,25&22,2.0&1.0,-26
CC(=O)c1c(C)[nH]c(C(=O)Nc2cccc(S(=O)(=O)N3CCCC3)c2)c1C,-29,/,-15,8,0.3,-2
O=C1CC(N2CCN(c3ccc(S(=O)(=O)N4CCOCC4)cc3)CC2)C(=O)N1Cc1ccccc1 (centres undefined),-1,5,-1,-17,-0.7,3
COC(=O)C1C(=O)C2=C(CC1C)Nc1ccccc1NC2c1ccc(C)s1 (centres undefined),2,-3,-5,1,-0.8,3
O=C(Cc1ccc(Br)cc1)N1CCN(c2ccccc2)CC1,-2,-4,-4,0,0.9,2
COC(=O)NCC(c1cccnc1)N1CCN(c2ccccc2OC)CC1 (centres undefined),-3,-1,22,15,-1.3,8
O=C(Nc1ccc(C(=O)O)cc1)/C(=C\c1ccc2c(c1)OCO2)NC(=O)c1ccccc1Cl,0,/,-10,-5,-0.3,3
COc1cc2cc(CCCOC(=O)c3ccc4c(c3)OCO4)oc(=O)c2cc1OC,-4,-10,1,15,-0.7,0
CCc1ccc(N(CC(=O)N2CCN(Cc3ccccc3)CC2)S(C)(=O)=O)cc1,-2,-1,-6,16,0.1,2
CN(Cc1ccccc1)c1nc(N)c([N+](=O)[O-])c(Nc2cccc(F)c2)n1,-24,15,-15,7,0.4,-18
COc1ccccc1-n1c(SCC(=O)Nc2cccc3ccccc23)nc(O)cc1=O,-11,17,0,-14,2.0,-3
CCC1(C)Cc2c(C#N)c(N)n(-c3ccccc3)c(=S)c2CO1 (centres undefined),0,10,6,24,0.4,-15
